Source: PubChem BioAssay (Southern Research Institute)
Mtb growth: Mycobacterium tuberculosis H37Rv growth inhibition, cell based, confirmatory dose response (AID 1949). inhibition, % at 10 µg/mL, or IC50 in µg/mL where a hit was titrated. most inactive calls were filed without a number and no value below 0 was filed. 100,000 compounds, 1.6% hits;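 active = confirmed in a dose series; inconclusive = about 50% or more but not retested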;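 also: bacteria grown 7 days with compound before Alamar blue readout; 0% = untreated bacteria and 100% = reference antibiotic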
* hit, by the source's call; i = inactive; ? = inconclusive. A portion of the library, so the mix of outcomes need not match the whole.

SMILES | Mtb growth
O=C(NS(=O)(=O)c1ccccc1)c1ccccc1F | i
O=C(NCCCN1CCOCC1)C(Cl)(Cl)Cl | i
CCOC(=O)c1c(NC(=O)Cc2ccc(OC)cc2)sc2c1CC(C)(C)OC2 | 7%
COc1cc(C=O)ccc1OCCCCOc1ccc(F)cc1 | i
Cc1nnc(SCC(=O)NCCc2ccccc2)[nH]c1=O | i
Cc1c(Oc2ccc([N+](=O)[O-])cc2C(F)(F)F)ccc2c3c(c(=O)oc12)CCC3 | 0%
CC1=C(C(=O)Nc2cccc(C(F)(F)F)c2)C(c2ccc(N(C)C)cc2)C2=C(CCCC2=O)N1 (stereo not drawn) | i
CCCc1nnc(SCc2ccc(C(=O)OC)o2)n1N | i
CCc1ccc(-n2c(SCC(=O)N3CCOCC3)nc3sc(C)c(C)c3c2=O)cc1 | i
O=C(NC(=S)Nc1ccc(Oc2ccccc2)cc1)C1CCCCC1 | i
NC(=O)C1(N2CCCCC2)CCN(C2CC(=O)N(CCc3ccccc3)C2=O)CC1 (stereo not drawn) | i
O=C(NNC(=O)c1ccncc1)Nc1cccc(C(F)(F)F)c1 | ?
Cn1c(=O)c2c(nc(SCc3ccc(F)cc3)n2C)n(C)c1=O | i
N#Cc1c(NC(=O)CSc2n[nH]c(-c3ccc(Cl)cc3Cl)n2)sc2c1CCCC2 | 8%
CCC(=O)NC(=S)Nc1ccc(N2CCCCC2)cc1 | 3.5µg/mL*
Cc1ccsc1C1CC(c2cccs2)=NN1C(=O)c1ccco1 (stereo not drawn) | i
O=C(CSc1c(-c2ccccc2)c2cc(Cl)ccc2[nH]c1=O)N1CCCCC1 | i
Cc1cc(C)cc(OCC(=O)Nc2ccc(S(=O)(=O)N3CCCC3)cc2)c1 | 0%
C=CCNC(=O)C12CC3CCC1(C)C3(C)CO2 (stereo not drawn) | i
Cc1cc(Cl)ccc1NC(=S)NC1CC(C)(C)NC(C)(C)C1 | i

For reference, part of the list above:
SMILES | Mtb growth
O=C(NS(=O)(=O)c1ccccc1)c1ccccc1F | i
O=C(NCCCN1CCOCC1)C(Cl)(Cl)Cl | i
CCOC(=O)c1c(NC(=O)Cc2ccc(OC)cc2)sc2c1CC(C)(C)OC2 | 7%
COc1cc(C=O)ccc1OCCCCOc1ccc(F)cc1 | i
Cc1nnc(SCC(=O)NCCc2ccccc2)[nH]c1=O | i
Cc1c(Oc2ccc([N+](=O)[O-])cc2C(F)(F)F)ccc2c3c(c(=O)oc12)CCC3 | 0%
CC1=C(C(=O)Nc2cccc(C(F)(F)F)c2)C(c2ccc(N(C)C)cc2)C2=C(CCCC2=O)N1 (stereo not drawn) | i
CCCc1nnc(SCc2ccc(C(=O)OC)o2)n1N | i
CCc1ccc(-n2c(SCC(=O)N3CCOCC3)nc3sc(C)c(C)c3c2=O)cc1 | i
O=C(NC(=S)Nc1ccc(Oc2ccccc2)cc1)C1CCCCC1 | i
NC(=O)C1(N2CCCCC2)CCN(C2CC(=O)N(CCc3ccccc3)C2=O)CC1 (stereo not drawn) | i
O=C(NNC(=O)c1ccncc1)Nc1cccc(C(F)(F)F)c1 | ?
Cn1c(=O)c2c(nc(SCc3ccc(F)cc3)n2C)n(C)c1=O | i
N#Cc1c(NC(=O)CSc2n[nH]c(-c3ccc(Cl)cc3Cl)n2)sc2c1CCCC2 | 8%
CCC(=O)NC(=S)Nc1ccc(N2CCCCC2)cc1 | 3.5µg/mL*
Cc1ccsc1C1CC(c2cccs2)=NN1C(=O)c1ccco1 (stereo not drawn) | i
O=C(CSc1c(-c2ccccc2)c2cc(Cl)ccc2[nH]c1=O)N1CCCCC1 | i

Further records
SMILES | Mtb growth
O=C(CSc1ncn[nH]1)N1CCCCCC1 | i
CCC(C)c1ccc(NC(=S)NN2CCOCC2)cc1 (stereo not drawn) | i
COC(=O)c1ccc(C)c(NC(=O)c2cc3cc(Cl)ccc3oc2=O)c1 | 1%
Cc1ccccc1C(=O)NC(C)c1nnc(SCC(=O)Nc2nc(-c3ccccc3)cs2)n1C (stereo not drawn) | i
Cc1ccc(S(=O)(=O)NCCCN2CCOCC2)c(C)c1C | i
NC(=O)C1CCN(C(=O)c2ccc(Cl)c(Cl)c2)CC1 | i
CN1CCN(C2=NC(C(=O)Nc3ccccc3)CC(=O)N2)CC1 (stereo not drawn) | i
COc1ccc(Cl)cc1N(CC(=O)Nc1ccccc1SC)S(C)(=O)=O | i
COc1ccc(NC(=O)c2ccccc2-c2ccccc2)cc1 | 28%
Cc1ccc(S(=O)(=O)N2CCN(c3ccc(Cl)c(Cl)c3)CC2)cc1C | i
COc1ccc(-c2nnc(SCC(=O)Nc3ccc(C)c([N+](=O)[O-])c3)o2)cc1 | 1%
Cc1cc2ncn(CCCCOc3ccccc3)c2cc1C | 4.6µg/mL*
CC(=O)c1cccc(OCCN2CCN(C)CC2)c1 | i
Fc1ccccc1CSc1nnc(Cn2cnc3ccccc32)n1-c1ccccc1 | 1%
CC(=O)OCC(=O)C1CCC2C3CC=C4CC(O)CCC4(C)C3CCC12C (stereo not drawn) | i
CCOC(=O)c1ccc(NC(=O)N(c2ccccc2)c2ccccc2)cc1 | i
CCN(C(=O)c1ccc(NC(C)=O)cc1)c1ccccc1C | i
CS(=O)(=O)N(Cc1ccccc1)c1ccc(C(=O)Nc2cccnc2)cc1 | i
O=C(NCCNc1ccc([N+](=O)[O-])cc1C(F)(F)F)c1ccccc1 | 1%
C=CCn1c(CC(=O)Nc2cccc(OC)c2)nnc1SCC(=O)Nc1ccc(Br)c(C)c1C | i
CN(C)C(=S)Nc1cccc(Br)c1 | i
O=C(NCCC12CC3CC(CC(C3)C1)C2)C12CC3CC(CC(C3)C1)C2 | ?
COc1ccc(NC(=S)Nc2ccc(Oc3ccccc3)cc2)cc1OC | 7%
O=C(Nc1sc2c(c1C(=O)NC1CCS(=O)(=O)C1)CCCC2)c1cccs1 (stereo not drawn) | i
Cc1cc2nc(SCC(=O)O)nc(C)c2cc1C | i
COc1cc(/C=C/c2ccc3cccc(OC)c3n2)c(Cl)cc1OC(C)=O | 35µg/mL*
CCS(=O)(=O)NC1CCCCCC1 | i
COc1ccc(C(=O)N(Cc2nc(-c3ccccc3)no2)C(C)C)cc1OC | i
NS(=O)(=O)c1ccc(Nc2nc(-c3ccc(F)cc3)cs2)cc1 | i
CCCN(CC1CC1)C(=S)Nc1cccc(C)c1C | 0%
CC(C)C(=O)Nc1nnc(COc2ccccc2F)s1 | 1%
O=c1c2c(-c3ccc(Cl)cc3)csc2ncn1CCc1ccccc1 | 5%
Cc1c(C(C)NC(=O)Cc2c(Cl)cccc2Cl)cnn1C (stereo not drawn) | i
Cc1cc(-c2ccccc2)c2c3c(cn2n1)c(=O)n(C)c(=O)n3C | i
O=Cc1c[nH]c2ccc(Br)cc12 | i
COc1cccc(C(=O)Nc2nnc(C3CCCO3)s2)c1 (stereo not drawn) | i
COCCSc1ccccc1C(=O)Nc1nc2ccccc2s1 | ?
N#Cc1c(-c2ccccc2)oc2c1C(=O)c1ccccc1C2=O | i
CC(C(=O)Nc1ccncc1)c1ccc([N+](=O)[O-])cc1 (stereo not drawn) | i
Cc1ccsc1CNn1cn[nH]c1=S | i
COC(=O)COc1ccc(C2Nc3ccc(C(=O)O)cc3C3C=CCC32)cc1 (stereo not drawn) | i
COc1ccc(Cl)cc1NC(=O)CC(C)C | i
COc1cc(Br)c(C2NC(=O)NC(C)=C2C(C)=O)cc1OC (stereo not drawn) | 0%
CCCCOCCCNC(=O)c1cccc(I)c1 | 7%
Cc1cc(C)nc(NC(=S)Nc2ccc(F)cc2F)c1 | i
O=C(Nc1ccccc1C(=O)NCCOc1ccccc1)c1ccccc1I | i
O=C(NCCC1=CCCCC1)c1cnsn1 | i
COc1ccccc1N1CCN(C(=O)CN(c2cc(Cl)ccc2OC)S(C)(=O)=O)CC1 | i
CCOc1ccc(Br)cc1CNc1nn[nH]n1 | 11%
Cc1cc(NC(=O)CN2C(=O)/C(=C/c3ccccc3F)SC2=S)no1 | ?
Continuation:
SMILES | Mtb growth
NS(=O)(=O)c1ccc(CCNC(=O)c2ccccc2Br)cc1 | i
CCCCc1ccc(NC(=S)N2CCN(C)CC2)cc1 | i
O=S(=O)(c1cccs1)N1CCN(c2ncccn2)CC1 | i
COc1ccc(C(C)C)cc1S(=O)(=O)NC(C)c1ccccc1 (stereo not drawn) | i
COc1cc(C(=S)N2CCOCC2)cc(Br)c1OCc1ccccc1Cl | i
CS(=O)(=O)N(CC(=O)NCc1ccccn1)c1ccc2c(c1)OCCO2 | i
Cc1ccc(/C(N)=N/OC(=O)Cc2ccc(-c3ccccc3)cc2)cc1 | i
COc1cc(C(=O)Nc2ccc(S(=O)(=O)Nc3ccccc3)cc2)cc(OC)c1OC | i
CCOc1ccc(NS(=O)(=O)c2ccc(NC(=O)COc3cccc(C)c3)cc2)cc1 | i
CCOC(=O)c1cnc2c(C)c(Cl)ccc2c1NCCN(C)C | i
CCOc1ccc(C)cc1S(=O)(=O)Nc1ccc(F)cc1 | i
C=CCc1c(C)nc(SCC(=O)Nc2ccc(CC)cc2)[nH]c1=O | i
Clc1ccccc1OCCN1CCCCC1 | i
O=C(Cc1cccs1)Nc1ccon1 | i
CCC(Oc1ccc(-c2ccccc2)cc1)C(=O)OC (stereo not drawn) | i
O=S(=O)(c1ccc(Cl)cc1)N1CCN(C(=S)NC2CCCCC2)CC1 | i
COC(=O)c1cccc(NC(=O)CSCc2cccc(Cl)c2)c1C | 4%
COc1ccc(-c2cc(C(=O)Nc3cc(C)on3)c3ccccc3n2)c(OC)c1 | 34%
Brc1ccc(-c2noc(-c3ccc4ccccc4c3)n2)cc1 | 0%
N#Cc1nc(-c2ccccc2Cl)oc1NCc1ccc(Cl)cc1 | 2%
COc1ccc(-c2onc(C(F)(F)F)c2-c2ccccc2Cl)c(O)c1OC | i
CCCN(CC1CC1)C(=S)Nc1ccccc1OC | 3%
CCOc1ccc(NC(=O)CSc2nnc(CCc3ccccc3)n2CCOC)cc1 | i
CCN(CC)C(=O)c1sc(NC(=S)N2c3ccc(F)cc3CCC2C)c(C(=O)OC)c1C (stereo not drawn) | i
COc1cc(NC(=O)c2ccc3c(c2)OCO3)c(OC)cc1NC(=O)c1ccccc1 | 39%
Cc1ccc(-c2cc(-c3ccccc3)nc3ncnn23)cc1 | i
O=S(=O)(c1cccc2cccnc12)N1CCOCC1 | i
CCn1nccc1C(=O)NC1=C(C#N)CCC1 | 2%
O=c1c2ccccc2nc(/C=C/c2ccc([N+](=O)[O-])o2)n1CCCO | <0.1µg/mL*
CCCCOc1cccc(C(=O)NC(=S)Nc2cc(C(=O)O)ccc2C)c1 | i
COc1ccc(Br)cc1-c1nc(C)c(C(C)=O)n1O | i
COc1ccc(OC)c(NC(=S)NCCc2cnc[nH]2)c1 | i
O=C(CSCc1c(Cl)cccc1Cl)Nc1ccccc1C(=O)O | i
O=C(NC(=S)Nc1ccccc1OC(F)F)c1ccccc1Cl | i
O=C1CCCc2c1[nH]c1ccc(Br)cc21 | i
CC(=O)Oc1ccc(C(C)(C)c2ccc(OC(C)=O)cc2)cc1 | i
Cc1cccc2c(=O)oc(-c3ccc4c(c3)C(=O)N(CC3CCCO3)C4=O)nc12 (stereo not drawn) | i
Cc1ccc(S(=O)(=O)N(CC(=O)Nc2ccccc2)Cc2ccc(F)cc2)cc1 | i
O=C(N/N=C/c1ccccc1F)/C(=C\c1ccc2c(c1)OCO2)NC(=O)c1ccccc1 | i
O=C(NCc1cccnc1)c1ccc(COc2ccccc2Cl)o1 | 2%
Nc1ncnc(NCCc2ccccc2)n1 | 3%
S=C(NCCc1ccccc1)Nc1ccc(Br)cc1 | ?
Cc1nc(Nc2nc(CSc3ccc(Cl)cc3)cc(=O)[nH]2)nc2c(C)cccc12 | i
O=C(NNC(=S)NCC1CCCO1)c1sc2cccc(F)c2c1Cl (stereo not drawn) | i
COc1c(Cl)ccc(Cl)c1C(=O)Nc1ccccc1F | 1%
Clc1cccc(N2CCN(c3ncnc4scc(-c5ccccc5)c34)CC2)c1 | i
COc1cc(Br)cc2cc(C(N)=O)c(=O)oc12 | 2%
CCCN1CCC(NC(=S)Nc2ccccc2C(F)(F)F)CC1 | i
CC(=O)N(CCCCN1C(=O)c2ccccc2C1=O)c1ccc(C)cc1 | i
CS(=O)(=O)N1CCN(C(=O)COc2cccc(C(F)(F)F)c2)CC1 | i
(next part)
SMILES | Mtb growth
Cc1ccc(-n2cnc3scc(-c4ccccc4)c3c2=O)cc1 | i
Cc1ccc(NC(=O)CN(Cc2ccccc2)S(=O)(=O)c2cc(Cl)ccc2Cl)c(C)c1 | i
COc1ccccc1OCCn1cc(C#N)c2ccccc21 | i
Cc1ccc(NC(=O)C(C)(C)Oc2ccc(Cl)cc2)cc1Cl | i
COc1ccc(S(=O)(=O)Nc2ccc(S(=O)(=O)Nc3cc(Cl)cc(Cl)c3)cc2)cc1 | i
Cc1ccc2nc(/C(C#N)=C/c3ccc(-c4ccc5c(c4)C(=O)NC5=O)o3)[nH]c2c1 | ?
Cc1ccccc1-n1nnnc1SCC(=O)N1CCOCC1 | 2%
CCOC(=O)Cn1cnc2sc(C(N)=O)c(C)c2c1=O | i
O=C(COc1cccc2ccccc12)N1CCN(c2ccccc2F)CC1 | 2%
CCOc1ccc(OCCCCN2CCCC2)cc1 | i
NS(=O)(=O)c1ccc(NC(=O)CCN2C(=O)S/C(=C\c3ccc(Cl)cc3)C2=O)cc1 | i
C=CCc1ccccc1OCC(O)CN(C)C1CCCCC1 (stereo not drawn) | i
COc1cc(C2C3=C(CCCC3=O)N(CCC(=O)O)C3=C2C(=O)CCC3)cc(Cl)c1OC | 3%
CS(=O)(=O)N(CC(=O)Nc1c(F)cccc1F)Cc1ccccc1 | i
NC(=O)c1ccc(-n2nc(C(F)(F)F)c3c2CCCC3)cc1 | 0%
CCc1ccccc1OCC(=O)N1CCOCC1 | i
OCc1cc(Cl)c(OCc2ccc(Cl)cc2Cl)c(Br)c1 | 36%
CCC(=O)Nc1ccc(Cl)c(NC(=O)COc2cc(C)cc(C)c2)c1 | 0%
Ic1ccc(Nc2nc(-c3cccnc3)nc3ccccc23)cc1 | 5%
COc1nc(Oc2ccc(C=O)cc2)nc(N(C)C)n1 | i
Cc1cc(C)c(OCCCN(C)Cc2ccccc2)c(C)c1 | i
Cc1sc2ncnc(SCC(=O)NC3CCCCC3)c2c1C | i
Cc1cc(C)nc(NC(=O)COc2cc(Cl)c(Cl)cc2Cl)n1 | i
